Source: PubChem BioAssay
VACV Venus inh – qHTS for Stage-Specific Inhibitors of Vaccinia Orthopoxvirus: Venus Reporter Primary qHTS; AID 720580, 2013; 330,000 tested, 0.46% active; Vaccinia virus Venus reporter expression, fluorescence; Potency, µM (titrated, usually from 36.5 µM), without a hit: at the highest dose activity change, negative = inhibition, hits mostly inhibitors; active means well fitted inhibition curve with a large enough effect; inconclusive means small, poorly fitted or top-dose-only effect; inactive means no such curve, though single readings can be large or run the other way; tested in A549 cells; further: nearly all actives have a fitted effect of over 30% in size; inactives centre near -10
Vaccinia mCherry – qHTS for Stage-Specific Inhibitors of Vaccinia Orthopoxvirus: mCherry Reporter Primary qHTS. Potency, µM (doses to about 36.5 µM), inactives show at the top dose activity change, negative = inhibition, most hits filed as inhibitors. 310,000 tested, 0.63% active. Vaccinia virus mCherry reporter infection, fluorescence; about a quarter of the inactives have no number; active = well fitted inhibition curve with a large enough effect; inconclusive = small, poorly fitted or top-dose-only effect; inactive = no such curve, though single readings can be large or run the other way; tested in A549 cells; further: nearly all actives have a fitted effect of over 35% in size; inactives centre near -10
* marks the source's active call; other numbers are inactive results; i = inactive; ? = inconclusive; nt = not tested or not shown; [ ] = dose if it differs, or a comment. On the % scale 0 is the no-effect control and ±100 the full control effect; potency means the concentration at half of the fitted maximal effect. Random draw from the library. About 0.82% of those tested had a hit in this group.

SMILES	VACV Venus inh	Vaccinia mCherry
CN1CCC(N(C)S(=O)(=O)c2ccc(F)cc2F)CC1	-6%	i
O=C(Nc1ccc(-c2ccc([N+](=O)[O-])cc2)cc1)c1ccccc1F	-2%	-3%
C=CC[C@@H](CC(=O)NCCO)C(=O)N[C@@H](COC(=O)[C@@H](CC=C)CC(=O)OC(C)(C)C)Cc1c[nH]c2ccccc12	-4%	-19%
Oc1ccccc1-c1nnc(COc2ccccc2)o1	-6%	-9%
CCOc1cc(/C=N/NC(=O)COc2cccc(C)c2)ccc1OC(=O)c1cccs1	-3%	-13%
OCCN(Cc1cccnc1)Cc1ccccn1	-5%	-20%
C/C(=N\NC(=O)c1ccccc1)c1cc2cc([N+](=O)[O-])ccc2oc1=O	-17%	-1%
Cc1n[nH]c(C)c1S(=O)(=O)N1CCCC(C(=O)Nc2nccs2)C1 (configuration not stated)	-11%	-6%
Cn1[nH]c(=O)c(Cl)c(Cl)c1=O	-5%	nt
CCCCCCCC(=O)OCC(COC(=O)CCCCCCC)OC(=O)CCCCCCC	-14%	i
O=C(Nc1ccc(Cl)cc1)c1ccc2c(c1)N(Cc1ccccc1)CCS2	-5%	-9%
CCOc1ccccc1/C=C(\C#N)C1=CCCC1	3%	-14%
CCC(c1nnnn1Cc1ccc2c(c1)OCO2)N1CCN(c2ccc(F)cc2)CC1 (configuration not stated)	-17%	-15%
Cc1ccc2oc(=O)c3cnn(CC(=O)N4CCN(c5ccccc5F)CC4)c3c2c1	-2%	0%
COc1ccc(NC(=O)c2ccc3snnc3c2)cc1OC	10%	21%
C=CCC[C@@H](Cc1ccc(F)cc1)C(=O)OC[C@@H](Cc1c[nH]c2ccccc12)NC(=O)[C@@H](CC=C)CC(=O)N(CCO)Cc1ccccc1	?	-23%
O=S(=O)(O)c1ccc(SCc2ccccc2)nc1	-13%	i
COc1ccc(-c2n[nH]c3c2cnc2cc(OC)c(OC)cc23)cc1	11%	-9%
O=C(NNC(=O)c1ccccc1Br)c1ccccc1Cl	-10%	-5%
Cc1ccc(CNC(=O)c2ccc3c(c2)S(=O)(=O)c2ccccc2C3=O)o1	-14%	-13%
CCCCS(=O)(=O)N1C2=NC(C(=O)OC)=C(C(=O)OC)[C@@H]3N(C)c4ccc(OC)cc4[C@]23C[C@H]1C(=O)OC	0%	-27%
Cc1ccc(NC(=S)NCCO)c(C)c1	-11%	nt
COc1ccc(CN2C(=O)NC(=O)/C(=C\c3cc(OC)c(OC)c(OC)c3)C2=O)cc1	7%	-3%
O=C(CNC(=O)c1ccncc1)N/N=C/c1cccc([N+](=O)[O-])c1	0%	-6%
COc1ccc(NCC(=O)N/N=C/C=C\c2ccccc2)cc1	-4%	-18%
Following part
SMILES	VACV Venus inh	Vaccinia mCherry
COCCNc1nc(N)c([N+](=O)[O-])c(Nc2ccc(F)cc2)n1	-5%	-20%
Cc1nnc(NC(=O)CSc2nnc(Cc3cccn3C)n2C)s1	-5%	-11%
CCN(CC)CCNC(=O)c1ccc(NC(=O)/C=C/c2ccc3ccccc3n2)cc1	?	-25%
COc1ccc2c(Sc3ccc(C)cc3)c(C(=O)NCC(C)c3ccccc3)[nH]c2c1 (configuration not stated)	-24%	-27%
Cc1ccc(C(=O)/C=C/Nc2cccc(O)c2)cc1	-10%	-16%
O=C(c1ccc2c3n(nc2c1)-c1ccccc1CO3)N1CCCCC1	-14%	-22%
Cc1ccc(N2CCN(CC(O)COC3CCCCC3)CC2)cc1 (configuration not stated)	-9%	-6%
CC[C@@H]1[C@H]2CCCC(=O)N3CC[C@@H](C[C@@H]1OC(=O)Nc1ccc4c(c1)OCO4)[C@@H]23	-29%	i
COc1ccccc1NC(=O)COC(=O)c1cc2c(s1)CCC2	-8%	-20%
O=C(CC(=O)NC1CCCCC1)N/N=C/c1ccccc1Cl	-13%	i
O=S(=O)(c1ccc(NC2CCCCC2)cc1)N1CCOCC1	-17%	-4%
Cn1nc(C(=O)NCCc2ccc3c(c2)OCCO3)c2ccccc2c1=O	-1%	-5%
CC1(C)C2CCC1(C)C(NC(=O)/C=C/c1ccccc1)C2 (configuration not stated)	-24%	-7%
CCOC(=O)c1ccc(NC(=O)c2nc[nH]c2C(=O)N2CCC(C)CC2)cc1	-10%	?
COC(=O)c1cc(C)nc(Nc2nc(C(N)Cc3ccc(Cl)cc3)cs2)n1 (configuration not stated)	-11%	12%
CN(C(=O)COC(=O)c1ccc(-c2ccc(O)cc2)cc1)C1CCS(=O)(=O)C1 (configuration not stated)	-10%	-2%
CCOC1=NC(=C(c2ccccc2)c2ccccc2)OC1=O	-5%	-12%
Cc1nnc(N2CCC(C(=O)NC3CCCCC3)CC2)c2nn(-c3ccccc3)c(C)c12	-9%	i
Cc1cccn2c(=O)c3cc(C(=O)NCCCOC(C)C)sc3nc12	-18%	i
CC(=O)Nc1cccc(NC(=O)C2CCCN2C(=O)Nc2ccc(C)cc2)c1 (configuration not stated)	-13%	-15%
CC1C(=O)N(Cc2cccc(F)c2)c2ccccc2N1C(=O)c1ccccc1 (configuration not stated)	-14%	-27%
COc1cccc(CC(=O)Nc2nc(-c3ccc(F)c(F)c3)cs2)c1	-29%	?
CC(=O)c1c(O)c2ccccc2n(C2CCCCC2)c1=O	3%	-3%
COc1ccc2c(Sc3ccccc3)c(C(=O)N3CCC(C)CC3)[nH]c2c1	-15%	-17%
CCN1C[C@]2(COC(=O)c3ccccc3N3C(=O)CC(C)C3=O)CC[C@H](OC)[C@@]34C5C[C@@H]6[C@@H](OC)C[C@@](O)(C5[C@H]6OC)[C@](O)([C@@H](OC)C23)[C@@H]14 (some centres not stated)	-11%	i

Retrieved one by one from above, two records:
SMILES	VACV Venus inh	Vaccinia mCherry
O=C(c1ccc2c3n(nc2c1)-c1ccccc1CO3)N1CCCCC1	-14%	-22%
O=S(=O)(c1ccc(NC2CCCCC2)cc1)N1CCOCC1	-17%	-4%

Other compounds
SMILES	VACV Venus inh	Vaccinia mCherry
CC(=O)c1c(C)n(-c2ccc(N(C)C)cc2)c2ccc(OCC(N)=O)cc12	?	-35%
COc1ccc(OCC(=O)N2CC3(C)CC2CC(C)(C)C3)cc1 (configuration not stated)	-6%	nt
O=C(NC1CC1)c1ccc(Cl)c(S(=O)(=O)N2CCOCC2)c1	-9%	-9%
CC(C)CCNC(=O)CN(CC1CCCO1)C(=O)CCC(=O)Nc1ccccn1 (configuration not stated)	-12%	nt
CCOc1ccccc1OCC(=O)N/N=C(\C)Cc1ccc(OC)cc1	-21%	-13%
Cc1c2cnn(CC(=O)NCCCN3CC(C)CC(C)C3)c(=O)c2c(C)n1Cc1ccc(Cl)cc1 (configuration not stated)	-13%[7.34 µM]	i[7.34 µM]
CCc1nccn1-c1cc(C(C)(C)C)nc2c(-c3ccc(Cl)cc3)cnn12	-15%	i
CCc1nc2cc(C(=O)N3CCC[C@H]3CO)cc(NC(=O)c3ccccc3OC)c2n1C	-9%	-10%
CC1CCCCC1NC(=O)CN1CCC(NC(=O)C(C)(C)C)CC1 (configuration not stated)	-5%	-4%
CN(C)C(=O)N1CCCC(C(=O)NCc2ccccc2Cl)C1 (configuration not stated)	-1%	-14%
O=C(COc1ccccc1Cl)Nc1cc(NC(=O)COc2ccccc2Cl)cc(C(=O)O)c1	-9%	i
CC1CCN(C(=O)C2CCN(S(=O)(=O)c3cccc4nsnc34)CC2)CC1	-11%	i
COCCNC(=O)C1=CC(c2ccc3c(c2)OCO3)=NS(=O)(=O)N1C	-5%	-7%
COc1ccc(C2CC(=O)N(Cc3cccc(F)c3)c3ccccc3S2)cc1 (configuration not stated)	-14%	-13%
O=C(COc1cc(O)c2c(=O)cc(-c3ccccc3)oc2c1)c1cccc([N+](=O)[O-])c1	-3%	-16%
COc1ccc2cc(/C=N/NC(=O)c3ccc(CN(c4ccc(C)c(C)c4)S(C)(=O)=O)cc3)c(Cl)nc2c1	-18%	-9%
CC(=O)NCCc1nc2ccccc2n1Cc1ccccc1	-13%	i
Cc1ccc(OCCN2CCCCCC2)c(C)c1	-14%	nt
CCOc1ccc(C(=O)Nc2cccc3ncccc23)cc1Cl	-9%	-18%
CCCCCCCCN1C(=O)[C@H](CC(=O)N2CCC(c3ccccc3)CC2)C[C@@]2(C(=O)OC)CCCCC=C12	-10%	i
CC(C)CN1C(=O)C(=O)N(CC(=O)c2ccc[nH]2)C1=O	-13%	-11%
COc1ccc(N=Nc2c(C)n[nH]c2C)cc1	-9%	-24%
CCOC(=O)c1nc(NNC(C)=O)sc1C	-2%	-2%
C[C@H]1Cn2cnc(C(=O)N[C@H](C)c3ccccc3)c2C(=O)N1	-14%	-7%
Cc1ccc(S(=O)(=O)NCC23C=CC(O2)C2C(=O)N(c4ccccc4)C(=O)C23)cc1 (configuration not stated)	-12%	nt
Later entries
SMILES	VACV Venus inh	Vaccinia mCherry
CCC(=O)Nc1ccc(N2CCCCC2)cc1	-2%	i
CCc1c(C)nc(Nc2nc(C)c3cc(OC)ccc3n2)[nH]c1=O	?	?
Cn1c(=O)[nH]c(=O)c2c1[nH]c(=S)n2CCCc1ccccc1	-20%	i
Cc1cc(C)cc(NS(=O)(=O)c2ccc3c(c2)c(=O)n(C)c(=O)n3C)c1	5µM*	5.6µM*
COc1cccc2c(SCC(=O)N/N=C/c3ccccc3)cc(C)nc12	-27%	?
CCc1nc2ccc(C(=O)N3CCCCC3)cn2c1N(CCC(C)C)CCN(C)C	-10%	6%
COc1c(Cl)cc(C(=O)Nc2cc(-c3nc4ccccc4[nH]3)ccc2C)cc1Cl	-28%	-29%
CCC(=O)N1CCN(c2ccccc2NC(=O)c2cccs2)CC1	-4%	-8%
CNC(=O)CN1C(=O)CSc2ncccc21	-8%	i
CC(=O)N[C@@H](Cc1c[nH]c2ccccc12)C(=O)OCc1ccc(C#N)cc1	-7%	-34%
Cc1ccc(S(=O)(=O)c2nnn3c2nc(NCc2cccs2)c2sccc23)cc1	?	?
COc1cccc(NC(=O)CN(C)S(=O)(=O)c2cccs2)c1	-7%	-3%
O=C(CSc1nc2c([nH]c3ccccc32)c(=O)n1-c1cccc(Cl)c1)N1CCCC1	-11%	5%
O=C(COc1ccccc1)NC(=S)N1CCc2ccccc21	0%	-13%
Cc1ccccc1N/C(=C(/C(Cl)=C(Cl)Cl)[N+](=O)[O-])n1nnc2ccccc21	-7%	-5%
O=C(CCNC(=O)Cn1cnc2ccccc2c1=O)NCC1CCCO1 (configuration not stated)	-17%	-5%
COCCN1C(=NCCCOC(C)C)N[C@@H](c2ccccc2)C(C(=O)OC)=C1C	-11%	-11%
O=C(Nc1nc(-c2ccccn2)cs1)c1ccc2c(c1)OCCO2	?	11µM*
Cc1ccc(OCC(=O)N(Cc2ccccc2)c2c(N)n(Cc3ccccc3)c(=O)[nH]c2=O)c(C)c1	-6%	-24%
CCc1cccc(C)c1Nc1c(-c2ccc(SC)cc2)nc2sccn12	-25%	-24%
COC(=O)c1c(C)cc(OC(C)=O)c(C)c1OC(C)=O	-24%	nt
CCC(C(=O)NC1CCCC1)n1c(-c2ccnc3ccccc23)nc2ccccc21 (configuration not stated)	-1%	-1%
O=C(Nc1n[nH]c(=S)s1)c1ccco1	-9%	i
CCc1ccc(NC(=O)CSc2ccc3nnc(CCNS(=O)(=O)c4ccc(OC)cc4)n3n2)cc1	-6%	-4%
CC(C)C(=O)NC(=S)Nc1ccc(S(=O)(=O)N(C)Cc2ccccc2)cc1	?	nt

Exported with each value named: part of the list above
COc1cccc(NC(=O)CN(C)S(=O)(=O)c2cccs2)c1
  VACV Venus inh: -7%
  Vaccinia mCherry: -3%

O=C(CSc1nc2c([nH]c3ccccc32)c(=O)n1-c1cccc(Cl)c1)N1CCCC1
  VACV Venus inh: -11%
  Vaccinia mCherry: 5%

Gathered by group, the compounds so far containing a cyano group.
SMILES	VACV Venus inh	Vaccinia mCherry
CCOc1ccccc1/C=C(\C#N)C1=CCCC1	3%	-14%
CC(=O)N[C@@H](Cc1c[nH]c2ccccc12)C(=O)OCc1ccc(C#N)cc1	-7%	-34%

Next section:
SMILES	VACV Venus inh	Vaccinia mCherry
COc1ccc(NC(=O)c2sc3nc[nH]c(=O)c3c2C)cc1OC	-10%	-1%
COc1cccc(Oc2nc3ncn(Cc4ccccc4)c3c(=O)n2C)c1	1%	nt
CCOc1cc(C(=S)N2CCOCC2)ccc1OC	-10%	i
Cc1[nH]n(-c2ccc(Cl)cc2)c(=O)c1/C=N/n1c(C)nc2ccccc2c1=O	-1%	-13%
O=C(N1CCCC1)n1c(Cc2ccccc2)nc2ccccc21	-6%	-6%
N#Cc1nnn(-c2cc(Cl)cc(Cl)c2)c1N	-11%	-17%
CC(C)C1CN1CC(O)Cn1ccnc1[N+](=O)[O-] (configuration not stated)	3%	-8%
Cc1nn(CC(=O)NCc2ccc(OC(C)C)cc2)c(=O)c2c(C)n(-c3ccc(Cl)cc3)nc12	-21%	-25%
CC(=O)NS(=O)(=O)c1ccc(NC(=O)c2ccccc2F)cc1	-1%	-11%
CN(C)c1ccc(C=O)cc1[N+](=O)[O-]	-14%	-14%
COc1cccc(CNC(=O)C2CCC(CNc3c(N4CCC(C)CC4)c(=O)c3=O)CC2)c1 (configuration not stated)	-3%	12%
N#CCC(=O)Nc1sc2c(c1C(N)=O)CCCC2	-7%	?

As entered above.
CC(C)C1CN1CC(O)Cn1ccnc1[N+](=O)[O-] (configuration not stated) @ Vaccinia mCherry = -8%
COc1ccc(NC(=O)c2sc3nc[nH]c(=O)c3c2C)cc1OC @ Vaccinia mCherry = -1%
